CapD inh: inhibitors of Bacillus anthracis CapD enzyme; purified CapD enzyme, fluorescence intensity read-out; hits give low values; some hits fall short of the stated cut; z-score (concentration not given with the values); 0.23% of 140,000 active;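 active = z-score under -4 in either of two replicates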;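 also: stock transfer was 100 nL into about 40 µL; score is relative to mean and spread of the plate; one replicate is shown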
AID504770: growth inhibitors of E. coli YBA685 in a screen for V. cholerae RctB (chromosome II replication) inhibitors. E. coli YBA685 rctB-dependent plasmid, OD600 growth, 3 h; hits give low values. z-score (concentration not given with the values). 0.27% of 130,000 active. AID 504770;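 active = z-score under -2 on both plates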;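 also: wells of about 30 µL received 100 nL stock; score is relative to mean and SD of the test wells; the first replicate is given; strong numbers were not always called active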
Starred values were filed as active, the others as inactive; i = inactive; · = not tested or not shown.

SMILES | CapD inh | AID504770
O=C(O)c1cc(C(=O)O)c(=O)[nH]c1-c1ccccc1 | -0.42 | ·
CCCCCC12CCC(O)(CC1)CC2 | 0.025 | 0.1
Cc1cc2c(c(=O)o1)C1(C(=O)Nc3ccc(Br)cc31)C(C#N)=C(N)O2 (configuration not stated) | 0.085 | ·
CN(C)c1cccc(C(=O)N(Cc2ccc3c(c2)OCO3)C2CCCC2)c1 | · | 1.85
Cc1nn(Cc2nnn(CC(=O)NNC(=O)c3cn[nH]c3)n2)c(C)c1Br | -1.13 | ·
COCCCNC(=O)c1cc(S(=O)(=O)N2CCOCC2)ccc1SCc1cccc(OC)c1OC | -0.005 | ·
CCCc1ccc(S(=O)(=O)N(C)CCc2c[nH]c3ccccc23)cc1 | -0.075 | ·
C=CCN(C(=O)CSc1nncn2c1cc1occc12)c1ccccc1 | -0.815 | -0.55
O=C(O)c1ncoc1-c1cccc(Cl)c1 | -0.065 | -0.95
CN1C(c2ccccc2)CC(=O)CC1c1ccccc1 (configuration not stated) | -0.445 | -1.05
COc1ccc(NC(=O)c2ccc(CSc3ccccn3)cc2)cc1 | 1.35 | 1.65
COc1ccc(-n2c3c(cc(C(=O)N4CCOCC4)c2=O)C(=O)CC(C)(C)C3)cc1 | 0.31 | ·
Cc1ccc(C2CC(=O)NC(SCC(=O)Nc3cc(Cl)cc(Cl)c3)=C2C#N)cc1 (configuration not stated) | 0.02 | ·
O=C(COCC(=O)c1ccccc1)Sc1nc2ccccc2s1 | 0.01 | -0.45
CCCN(CCC)CN1C(=O)S/C(=C/c2ccc(N(CC)CC)cc2)C1=O | · | -0.65
Cc1ccc(S(=O)(=O)NC(=O)n2cc(-c3ccncc3)c(-c3ccc(C(F)(F)F)cc3)n2)cc1 | -0.215 | ·
CCC1(O)C(=O)OCc2c1cc1n(c2=O)Cc2cc3ccccc3nc2-1 (configuration not stated) | 94.3 | ·
CCCN(CCC)C(=O)CC(c1ccccc1)c1ccccc1O (configuration not stated) | -0.535 | 0.6
O=[N+]([O-])c1ccc2[nH]c3ccc([N+](=O)[O-])cc3c2c1 | -0.425 | ·
CC(C(=O)N=Nc1c(O)[nH]c2ccccc12)n1cnc2ccccc2c1=O (configuration not stated) | -1.94 | -0.2
Cc1cc2c(cc1S(=O)(=O)N1CC(C)CC(C)C1)OCC(=O)N2 (configuration not stated) | -0.06 | -0.6
CCOC(=O)N1CCC(n2c(SCC(=O)N3CCCCCC3)nc3ccccc3c2=O)CC1 | -0.41 | -1.9
COc1cc(C(C)(C)C)c(OC)cc1C(C)(C)C | 0.425 | -0.4
O=c1c(Cc2ccccc2)c(O)c2cccc3c4ccccc4n1c23 | 22.2 | -0.15
CCCc1[nH]n(-c2ccc(F)cc2)c(=O)c1C=Nc1ccc(OCC)cc1 | -0.72 | ·

Of the compounds above, four have an aryl methoxy group:
SMILES | CapD inh | AID504770
COCCCNC(=O)c1cc(S(=O)(=O)N2CCOCC2)ccc1SCc1cccc(OC)c1OC | -0.005 | ·
COc1ccc(NC(=O)c2ccc(CSc3ccccn3)cc2)cc1 | 1.35 | 1.65
COc1ccc(-n2c3c(cc(C(=O)N4CCOCC4)c2=O)C(=O)CC(C)(C)C3)cc1 | 0.31 | ·
COc1cc(C(C)(C)C)c(OC)cc1C(C)(C)C | 0.425 | -0.4

(cont.)
SMILES | CapD inh | AID504770
N#Cc1cccc(NC(=S)NC(=O)c2cccs2)c1 | -1.44 | 2.25
CCCOc1ccc(-c2nc(NCCN)c3ccccc3n2)cc1 | 19.5 | -3.05*
Cc1nc(N2CCN(C)CC2)c2c(C)c(C(=O)N3CCCC(C)C3)sc2n1 (configuration not stated) | -0.175 | ·
O=C(CSCc1cc2cccc3c2n(c1=O)CCC3)N1CCc2ccccc2C1 | 3 | ·
O=c1c2c3c(sc2ncn1Cc1ccc(Cl)cc1)CCCC3 | -0.535 | ·
O=C1C=C(c2ccccc2)C(O)(c2ccccc2)C1 (configuration not stated) | -0.27 | -3.15
CCCn1nnnc1NCc1ccc(F)cc1 | -0.2 | 0.45
O=C(Sc1ccc(Oc2ccc(SC(=O)c3ccco3)cc2)cc1)c1ccco1 | 0.04 | 0.3
COc1cccc(C(=O)C2CN(c3ccccc3)CC2c2ccc(Cl)cc2)c1 (configuration not stated) | 0.36 | ·
N=C1C(c2nc3ccccc3[nH]2)=C(O)CN1C1CCCCCC1 | -0.13 | -1.15
Cc1nc(-c2ccc(C(F)(F)F)cc2)sc1C(=O)NNC(=O)OCc1ccc2c(c1)OCO2 | 6.1 | ·
OCCNc1cc(-c2ccccc2)nc(-c2ccc(Br)cc2)n1 | 1.25 | -0.8
COc1ccc(S(=O)(=O)N2CCC(NC(=O)NC(C)C)CC2)cc1 | 0.29 | ·
CCCCC1(COC(=O)c2ccc(OC)cc2)C(=O)N(c2ccccc2)N(c2ccccc2)C1=O | -0.22 | 0.1
O=C(O)C1CC2CCC1CC2 (configuration not stated) | -0.06 | ·
CCOC(=O)C(CC)Sc1nnc(COc2ccc(Cl)c(C)c2)n1CC (configuration not stated) | · | -0.3
N#CC1(NC(=O)COC(=O)c2ccccc2C(F)(F)F)CCCC1 | · | -0.1
CC1CCN(c2nc3ccccc3nc2N2CCC(C)CC2)CC1 | · | 0.2
COc1cc(C2Sc3ccccc3NC3=C2C(=O)OC3)cc(OC)c1OC (configuration not stated) | 0.235 | 0.95
O=C(NC(Cc1c[nH]c2ccccc12)C(=O)OCc1ccccc1)OCCCC1CCCCC1 (configuration not stated) | -0.635 | ·
CCN1CCN(CC2=CCC3CC2C3(C)C)CC1 (configuration not stated) | -0.06 | -0.4
O=C(CN1C(=O)CSc2ncccc21)NCc1ccccc1 | -0.105 | -0.65
O=C(NCCN1CCc2ccccc2C1)c1cc(-c2ccc(Br)s2)nc2ccccc12 | 0.15 | -0.2
COc1cc(C(=O)OCc2cc(=O)c(O)co2)ccc1OC(F)F | · | -0.35
COc1cc(/C=C2/SC(=S)N(CCC(=O)N3CCOCC3)C2=O)cc(OC)c1OC | -0.005 | ·

Single values from the entries so far:
Entry of CCCOc1ccc(-c2nc(NCCN)c3ccccc3n2)cc1 in CapD inh: 19.5
Entry of O=C(CSCc1cc2cccc3c2n(c1=O)CCC3)N1CCc2ccccc2C1 in CapD inh: 3

Remaining list, next part:
SMILES | CapD inh | AID504770
CCC1=NCC(=O)Nc2ccc(Cl)cc21 | 3.31 | 0.3
CCOc1cc(/C=C2\SC(=O)N(Cc3ccc(Cl)cc3)C2=O)ccc1OCC(=O)OC | 5.95 | ·
Cc1ccc(OCC(=O)N2CCC(N3CCCCCC3)CC2)cc1 | -0.05 | -0.75
Cc1cnc(NC(=O)c2ccco2)s1 | · | -0.45
COCC(Cc1ccccc1)NC(=O)c1ccc(NC(C)=O)cc1 (configuration not stated) | -0.175 | ·
CC1=C(C(=O)Nc2ccccc2)SCCO1 | 0.17 | -0.65
CCOC(=O)Cc1csc(NC(=O)CSc2nc(=O)[nH]c3c2CCC3)n1 | · | 0.55
Cc1ccc(/C(O)=C2\C(=O)C(=O)N(CCCN3CCOCC3)C2c2ccccc2F)cc1 (configuration not stated) | -0.215 | ·
Cc1nc(SCC(=O)Nc2cccc(C(F)(F)F)c2)c(C#N)c(C)c1C | -0.1 | ·
COC(OC)c1ccnc(-c2ccc(OC(=O)c3ccc([N+](=O)[O-])cc3)cc2)n1 | 0 | ·
CCNC(=O)c1cccc(OCc2c(C)noc2C)c1 | · | -0.1
Cc1cc(C)nc(/N=C/c2c(O)c3ccccc3oc2=O)n1 | -0.635 | -0.95
Clc1ccc(CSc2nc3ccccc3s2)cc1 | 0.16 | 0.2
O=C(Cc1ccc(F)cc1)N1CCCCC1 | · | -0.5
O=C(Nc1cccnc1)c1cccs1 | · | -0.95
CCn1cc(S(=O)(=O)N2CCc3ccccc3C2)cn1 | 0.865 | 0.95
O=C1N(CN2CCCCC2)c2ccccc2C12OCCCO2 | -0.365 | ·
O=C(Cn1ncc2ccccc21)N1CCC(Cc2ccccc2)CC1 | 0.165 | -0.2
Cc1ccc(S(=O)(=O)Cn2nnnc2CN(Cc2ccco2)Cc2cccs2)cc1 | · | -0.5
CSc1nsc(SCC(=O)Nc2ccccc2)n1 | · | 0.1
CNC(=O)CS(=O)CC(=O)Nc1cc(OC(C)C)c(Cl)cc1Cl (configuration not stated) | -0.355 | ·
CCOc1cc(NC(=O)[C@@H](NC(=O)c2ccco2)C(C)C)c(OCC)cc1NC(=O)c1ccccc1 | · | 0.7
CCOP(=O)(OCC)C(Nc1ccc([N+](=O)[O-])cc1)c1ccccc1 (configuration not stated) | -1.54 | ·
Cc1onc(-c2ccccc2Cl)c1C(=O)Nc1c2c(nn1-c1ccc(Cl)cc1)CS(=O)(=O)C2 | -0.795 | ·
Cc1c(/C=N/NC(N)=S)sc2ccccc12 | -1.5 | ·

Profiles as entered above.
`Cc1ccc(OCC(=O)N2CCC(N3CCCCCC3)CC2)cc1` in the list: CapD inh = -0.05; AID504770 = -0.75
`Cc1c(/C=N/NC(N)=S)sc2ccccc12` in the list: CapD inh = -1.5; AID504770 = ·
`O=C(Cc1ccc(F)cc1)N1CCCCC1` in the list: CapD inh = ·; AID504770 = -0.5

The list goes on:
SMILES | CapD inh | AID504770
Cc1cc(C(=O)Nc2ccc(N3CCOCC3)c(Cl)c2)c(C)o1 | -0.46 | -0.85
COC(=O)C1=C(C)OC(N)=C(C#N)C12C(=O)N(C)c1ccccc12 (configuration not stated) | 0.26 | 2.55
O=C(O)C1C2C=CC(C2)C1C(=O)OCc1ccccc1 (configuration not stated) | -0.185 | -0.15
Cc1cc(C)c2[nH]c(=O)c(CN(C3CCCCC3)C(c3nnnn3Cc3ccco3)C(C)C)cc2c1 (configuration not stated) | · | 0.75
CCc1ccccc1NC(=O)CCN1C(=O)c2ccccc2C1=O | -0.415 | 0.95
N#Cc1nc(=O)n(-c2ccc(OC(F)(F)F)cc2)c(N)c1N=Cc1ccc(C(F)(F)F)cc1 | 19.4 | 0.4
CCOC(=O)C(C#N)C(c1ccco1)c1ccccc1OC (configuration not stated) | -0.445 | 0
Cc1ccc(-c2cc(C(=O)Nc3ccc(F)c([N+](=O)[O-])c3)c3ccccc3n2)s1 | 6.84 | ·
Cc1cccc(OCc2cc3cccc4c3n(c2=O)CCC4)c1 | -0.3 | ·
COc1ccc(C2=C(Cl)C=C(c3ccccc3)c3ccccc3O2)cc1OC | 0.54 | ·
O=C(O)c1cc(-n2c(-c3cnccn3)n[nH]c2=S)ccc1Cl | -0.875 | -1.3
CN1CCCc2cc(-c3ccnc4ccccc34)ccc21 | 6.98 | 0.35
CC(=O)NCc1c(Cl)cccc1Sc1ccc(Cl)cc1 | 0.44 | 0.25
CN(C)C(=O)CSc1nnc(C23CC4CC(CC(C4)C2)C3)o1 | -0.77 | 2
COc1ccc(N2C(=S)N=C(Nc3cccc(C(F)(F)F)c3)C23CCC(C(C)(C)C)CC3)cc1 (configuration not stated) | -0.175 | ·
O=C(OCC(=O)N1CCOCC1)c1ccc(Cl)cc1 | · | -0.25
Cc1csc(SCC(=O)c2ccc3c(c2)NC(=O)CO3)n1 | · | 0.35
NC(=O)C1CCN(c2c(Cl)cncc2Cl)CC1 | -0.45 | 0.35
O=C1c2ccccc2-c2nn(-c3ccccc3)c(=O)c3ccc(N4CCCCC4)c1c23 | 0.07 | ·
COC(=O)c1cc2c(s1)CCCC2 | · | -0.25
C=CCNC(=O)c1cc(Br)cs1 | 0 | -0.95
Cc1noc(C)c1COC(=O)c1ccc2c(c1)C(=O)N(Cc1ccccc1)C2=O | · | -0.4
CCOC(=O)CNc1nc(Cl)nc(N2CCOCC2)n1 | 0.87 | -1.4
C=CCn1c(SCC(=O)Nc2ccc(NC(C)=O)cc2)nc2sc3c(c2c1=O)CCC3 | -0.16 | ·
CC1CCc2sc(NC(=O)c3cccs3)c(C(N)=O)c2C1 (configuration not stated) | i | 1.95
Next section:
SMILES | CapD inh | AID504770
CC(C)(C#N)N1CCN(c2ccc(Cl)c(Cl)c2)CC1 | 0.145 | -0.8
CN(C(=O)COC(=O)c1ccc(-c2ccccc2)cc1)c1ccccc1 | 0.23 | 0.95
CC(C)C(NC(=O)c1ccc2c(c1)OCO2)c1nnc(SCC(=O)NC2CCCCC2)n1C (configuration not stated) | · | -0.6
O=C(OCc1cccc(OCc2ccccc2)c1)N1CCN(c2ccc([N+](=O)[O-])cc2)CC1 | -0.045 | ·
COC(=O)c1ccc(COc2ccc(C#N)cc2)o1 | -1.09 | 2.75
Cc1ccc(Nc2cc(C(=O)N3CC(C)CC(C)C3)c3ccccc3n2)cc1C (configuration not stated) | -0.9 | -1.65
O=C(O)CN1CC(c2ccccc2)CC1=O (configuration not stated) | -0.02 | -0.9
Cc1cccc(-c2nc(C#N)c(N3CCCCC3)o2)c1 | 112 | 0.95
CCn1c2ccccc2c2cc(/C=N/NC(=O)c3ccc4ccccc4c3)ccc21 | 16 | ·
CC(=O)N=c1scc(-c2ccccc2)n1-c1cccc2ccccc12 | -0.485 | -0.8
CNC(=O)COc1cccc2c(=O)[nH]ccc12 | · | 1.2
CCN(CC)C(=O)C1CCCN(c2ncnc3c2cnn3-c2ccc(C)cc2C)C1 (configuration not stated) | -0.595 | ·
CC(=O)Nc1ccc(S(=O)(=O)CCC#N)cc1 | 0.57 | 0.5
COc1ccc(NC(=O)c2sc3nc(C)nc(N4CCOCC4)c3c2C)cc1OC | -1.28 | ·
O=C(NCc1ccccn1)C1CCN(c2ncc(-c3ccc(Cl)cc3)cn2)CC1 | 1.73 | ·
Cc1cc(NS(=O)(=O)c2cccc(F)c2)n(-c2ccccc2)n1 | -0.7 | 1.85
CCN(CC)S(=O)(=O)c1ccc2c(c1)nc(SCc1csc(NC(C)=O)n1)n2CC | · | -2.15
NC(=O)C1CCN(CC(=O)NCc2ccccc2Cl)CC1 | · | -0.45
CCN(CC)S(=O)(=O)c1ccc2c(c1)nc(CCC(=O)OCC(=O)c1ccc(Cl)s1)n2C | · | 0.25
O=C(CSc1nc2ccccc2c(=O)n1-c1ccc(F)cc1F)NC1CCCC1 | -0.215 | 0.9

No enrichment for hits. Share with any hit: about 0.37%.
